TRPML1 blocker = qHTS for Inhibitors of the Human Mucolipin Transient Receptor Potential 1 (TRPML1) | TRPML1-inducible cells, Ca2+ dye fluorescence, FDSS; stronger effect = lower value; inhibition of EC80 agonist-evoked calcium signal | activity change, negative = inhibition, % (test concentration not listed) | 390,000 tested, 0.02% active | AID 624415, 2012; in the data active means activity change below about -50%; inconclusive means about -30% to -50%; inactive means above about -30%;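 further: stimulus is agonist 54-4 at its EC80 concentration; on the % scale 0 is the no-effect control and ±100 the full control effect; compound concentration not given in the record; the text of the record puts the active cut at -80%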
Target sequence (Q9GZU1 whole entry, looked up): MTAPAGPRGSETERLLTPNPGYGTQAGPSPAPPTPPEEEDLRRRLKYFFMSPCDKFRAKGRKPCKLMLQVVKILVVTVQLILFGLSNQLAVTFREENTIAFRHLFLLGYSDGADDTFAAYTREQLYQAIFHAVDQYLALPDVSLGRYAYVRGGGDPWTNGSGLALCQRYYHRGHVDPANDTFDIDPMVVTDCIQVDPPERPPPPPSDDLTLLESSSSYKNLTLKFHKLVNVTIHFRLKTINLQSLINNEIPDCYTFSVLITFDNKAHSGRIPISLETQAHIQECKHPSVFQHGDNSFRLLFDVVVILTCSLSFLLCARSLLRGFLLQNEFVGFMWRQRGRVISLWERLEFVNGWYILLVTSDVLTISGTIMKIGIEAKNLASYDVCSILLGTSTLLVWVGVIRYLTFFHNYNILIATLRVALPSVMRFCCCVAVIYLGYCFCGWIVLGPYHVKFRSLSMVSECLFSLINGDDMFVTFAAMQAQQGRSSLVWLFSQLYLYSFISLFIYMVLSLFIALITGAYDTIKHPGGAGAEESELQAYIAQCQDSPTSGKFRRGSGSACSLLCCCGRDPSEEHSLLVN
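Calcium fluorescence in TRPML1-DL cells induced overnight with Tet: a 110 s read after compound pin addition, then a 110 s antagonist read after challenge with 54-4 at 4 uM final (EC80).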
Menin MLL FP FL = qHTS Assay for Inhibitors Targeting the Menin-MLL Interaction in MLL Related Leukemias: Competition With Fluorescein Labeled MLL-derived Peptide; 290,000 tested, under 10 active; Fluorescence polarization, fluorescein-MLL peptide displacement from menin; FP activity change, % at 61.4 µM; inconclusive = falling polarisation curve, or a change in total fluorescence; inactive = total fluorescence flat and polarisation flat or rising; no compound was filed as active; the % refers to the polarisation; negative = inhibition;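 further: % of control where 0% means no effect; inhibitors lower the polarisation; unlabelled MLL peptide was the positive control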
gsp antagonist = qHTS for Antagonists of gsp, the Etiologic Mutation Responsible for Fibrous Dysplasia/McCune-Albright Syndrome: qHTS; gsp-mutant cells, cAMP HTRF, 30 min; control for the full effect not named in the record; Potency, µM (titrated, usually from 76.9 µM), for the others: at the top dose activity change, negative = inhibition, actives largely listed as inhibitors; 340,000 tested, 0.4% active; active = falling curve of any shape with a large fitted effect; inconclusive = falling curve, mostly with a smaller effect; inactive = flat or rising curve; cell line not stated here;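 further: intracellular cAMP measured with PDE inhibitor Ro 20-1724 present during compound exposure; potency means the concentration at half of the fitted maximal effect; on the % scale 0 is the no-effect control and ±100 the full control effect; nearly all actives have a fitted effect of over 65% in size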
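Measurement of cellular cAMP by homogeneous time-resolved fluorescence following a 30 min compound exposure at 37C. The PDE inhibitor […] was present throughout; the assay buffer was DPBS with 0.05% BSA and 0.005% Tween 20.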
TRPML1 agonist = qHTS for Agonists of the Human Mucolipin Transient Receptor Potential 1 (TRPML1); TRPML1-expressing cells, Ca2+ dye fluorescence, FDSS; host cell line not named in the record; reference of the full effect not given here; activation, % (test concentration not listed); 410,000 tested, 0.12% active; in the data active = activation above about 50%; inconclusive = about 30% to 50%; inactive = below about 30%; further: 0% is about no effect; the text of the record puts the active cut at 80%
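Tetracycline-induced TRPML1-DL cells are seeded and incubated overnight before loading with a no-wash Ca2+ dye and quencher. Agonist activity is taken from the 110 s fluorescence read following compound pin-transfer on an FDSS, before EC80 54-4 challenge.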
ClpP mod = qHTS Assay for Activators of ClpP | purified B. subtilis ClpP, FRET peptide cleavage, 20 min | Potency, µM (series often up to 57.5 µM), for inactives: at the top dose activity change, negative = active | 340,000 tested, 1.9% active; active = well fitted falling curve with a large enough effect; inconclusive = small, poorly fitted or top-dose-only effect; inactive = no such curve, though single readings can be large or run the other way; further: potency means the concentration at half of the fitted maximal effect; the source files actives as falling curves though it sought activators and does not explain the sign; nearly all actives have a fitted effect of over 65% in size; many hits overshoot -100%
Target sequence (P80244 whole entry, looked up): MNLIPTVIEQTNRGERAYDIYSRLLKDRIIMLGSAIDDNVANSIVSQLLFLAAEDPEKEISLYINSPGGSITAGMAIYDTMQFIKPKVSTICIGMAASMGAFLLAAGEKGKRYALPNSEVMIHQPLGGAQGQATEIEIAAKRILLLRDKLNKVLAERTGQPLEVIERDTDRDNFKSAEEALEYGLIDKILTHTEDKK
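Purified B. subtilis ClpP, 10 microg/mL final in Tris/HCl pH8 with KCl, BSA, glycerol and Tween-20, cleaved an Abz/nitrotyrosine-quenched decapeptide. Fluorescence (ex 320, em 430) was read at 0 and 20 min at room temperature. Delta was normalized to 5.8 microM ADEP and DMSO/no-enzyme controls.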
gsp ag = qHTS for Agonist of gsp, the Etiologic Mutation Responsible for Fibrous Dysplasia/McCune-Albright Syndrome: qHTS | gsp mutant cells, cAMP HTRF, 30 min; control for the full effect not named in the record | Potency, µM (top dose mostly 76.9 µM), inactives show at the highest dose activation (cAMP increase), actives largely listed as activators | 340,000 tested, 0.13% active | AID 624287, 2012; active = well fitted activation curve with a large enough effect; inconclusive = small, poorly fitted or top-dose-only effect, or another doubt; inactive = no such curve, though single readings can be large or run the other way; cell line not stated here;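 further: phosphodiesterase inhibitor Ro 20-1724 added with compounds to block cAMP breakdown; potency means the concentration at half of the fitted maximal effect; nearly all actives have a fitted effect of over 60% in size; about a fifth of the inactives were tested at one dose only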
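Cells stably selected in G418 were plated at 2000/well, grown 16-24 hr, then given compounds in DMSO with the PDE inhibitor […] (300 uM solution added) for 30 min at 37C; cAMP was read by HTRF.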
Numbers without * were called inactive; ? = inconclusive; · = not tested or not shown; & = joins results of further samples; [ ] = another dose, or the depositor's remark.

SMILES	TRPML1 blocker	Menin MLL FP FL	gsp antagonist	TRPML1 agonist	ClpP mod	gsp ag
CCCc1cc(=O)oc2cc(C)cc(OCC(=O)Nc3cccnc3)c12	-1.1	-0.4	-12.8%	0.2	3.7%	5.3%
CCC(=O)Nc1ccc(S(=O)(=O)N2CCc3ccccc32)cc1	-3.9	2.8	-9.0%	0.6	-0.8%	7.2%
O=S(=O)(CCNCc1ccccc1)NC1CCCCC1	-16.8	·	4.7%	-1.1	2.1%	·
Cc1cccc(/C=C(\c2nc3ccccc3[nH]2)S(=O)(=O)c2ccccc2)c1	15.8	3.3	-19.8%	2.4	·	3.4%[15.4 µM]
Cc1nc(C)c(-c2csc(Nc3ccc(O)cc3C)n2)s1	-1.1	6.4	-11.4%	1.5	·	12.1%
Cc1ccc(C(=O)NCC(=O)NCCCc2ccccc2)cc1	-26.2	1.3	3.1%	-0.4	·	-14.7%[15.4 µM]
Cn1c(OCc2cccnc2)nc2c1c(=O)n(Cc1ccc(Cl)cc1)c(=O)n2C	-9.5	·	-2.9%	0.9	-3.1%	-47.1%[inhibitor]
COc1cccc(CN2CCNC(=O)C2CC(=O)NCCn2ccc3ccccc32)c1OC (centres undefined)	-2.7	0.0	53.6%[activator]	0.1	-1.5%	9.9%
Cc1ccnc(NS(=O)(=O)c2ccc(NC(=O)COc3ccccc3)cc2)n1	39.8	0.2	·	0.2	·	-0.1%[15.4 µM]
O=C(NCC1CCCO1)C(c1ccc(F)cc1)N(Cc1ccc(F)cc1)C(=O)Cn1nnc(-c2cccs2)n1 (centres undefined)	-18.8	1.5	1.3%	0.3	1.1%	-56.1%[inhibitor]
CC1CCN(C(=O)c2ccc(S(=O)(=O)Cc3ccccc3F)c([N+](=O)[O-])c2)CC1	-1.9	5.5	-16.9%	0.1	-3.4%	-8.6%
O=C(O)CCC(=O)Nc1ccc(Br)cc1C(=O)c1ccccc1	-12.0	3.9	-34.5%	1.2	0.4%	-24.1%
O=C(COc1ccccc1Cl)Nc1cccnc1	-20.5	-13.1	5.1%	0.0	1.6%	13.9%
CC(=O)c1cn(CCCCCCCn2cc(C(C)=O)c(=O)[nH]c2=O)c(=O)[nH]c1=O	-9.2	-1.2	7.3%	0.3	·	18.1%[15.4 µM]
O=C(COC(=O)/C=C/c1ccc([N+](=O)[O-])cc1)NCc1ccco1	-14.8	2.5	10.9%	0.1	1.3%	?
COC(=O)c1ccc(N=NNc2cccc(Br)c2)cc1	7.1	4.9	7.7%	1.9	0.1%	0.2%[15.4 µM]
Cn1ccc2cc(S(=O)(=O)N3CCCC(C(=O)NCc4ccc(F)cc4)C3)ccc21 (centres undefined)	3.2	·	·	1.8	-9.6%	·
COc1ccc(C2C(=O)N(C3CCCCCC3)CC(=O)N2Cc2ccc(C)cc2)cc1 (centres undefined)	-2.1	·	·	0.5	0.9%	·
CCOC(=O)c1c(NC(=O)c2cc(-c3ccc(OC)cc3)on2)sc(C)c1C	18.4	·	·	-0.3	-0.7%	·
CC(C)c1nc(N2CCN(C(=O)c3ccccc3)CC2)c(C#N)c2c1COC(C)(C)C2	3.5	3.2	14.5%	-0.3	28.2µM*	18.6%
COc1ccc(CCNC(=O)c2cc([N+](=O)[O-])cc([N+](=O)[O-])c2)cc1OC	13.9	0.2	3.8%	0.5	1.9%	-7.2%
CCOc1ccc(C(=O)C(C)OC(=O)c2cnc(C)cn2)cc1 (centres undefined)	-8.9	·	0.2%	0.5	0.7%	-31.3%[inhibitor]
CCOC(=O)C1=C(C)N(C[C@@H]2CC[C@@H](Cc3ccc(-c4ccccc4)cc3)O2)C(=O)NC1c1cccc([N+](=O)[O-])c1 (some centres undefined)	-17.6	·	6.5%	-0.4	-1.1%	·
COCCCNC(=S)N1CCN(c2nc(-c3cccc(OC)c3)cs2)CC1	-7.9	6.0	?	-0.2	-4.2%	1.7%
O=C(CN1C(=O)NC(Cc2ccccc2)C1=O)NC(=O)NC1CCCCC1 (centres undefined)	1.6	1.4	6.9%	0.1	0.7%	23.6%
CC(C)n1nc(C(=O)OCC(=O)N(C)C2CCS(=O)(=O)C2)c2ccccc2c1=O (centres undefined)	44.9	0.0	-1.6%	2.4	-0.8%	3.3%
Cc1ccccc1CNC(=O)CCCn1c(=O)c2cccn2c2cccnc21	-3.8	·	·	0.9	4.4%	·
CCOC(=O)CSCc1c(C#N)c2ccccc2n1C	21.1	-1.7	-9.3%	-0.6	-0.4%	-17.6%
CC(C)(C)OC(=O)NCCCC[C@H](NC(=O)c1[nH]cnc1C(=O)Nc1ccc(CNC(=O)OC(C)(C)C)cc1)C(=O)OC(C)(C)C	25.2	0.5	-8.7%	1.7	-14.5%	·
O=C1CSC(c2ccccc2F)N1 (centres undefined)	4.2	-0.4	11.6%	0.1	·	-44.4%[inhibitor]
COc1cccc(-n2c(SCC(=O)OC(C)C)nnc2-c2cccnc2)c1	-1.3	-1.3	-10.8%	0.2	0.5%	6.6%
CCOc1ccc(CCNC(=O)COC(=O)c2ccc(C)s2)cc1OCC	-10.8	·	7.4%	1.2	-1.4%	8.7%
O=C(N/N=C/c1ccc(-c2ccc(Cl)c(C(=O)O)c2)o1)c1cc2c(ccc3ccccc32)o1	·	31.1[activator]	-2.2%	·	3.5%	23.6%
COc1ccccc1CNC(=O)c1ccc2c(=O)n(CCCN3CCCC3=O)c(=S)[nH]c2c1	43.3	-2.7	-6.5%	1.0	?	2.4%[15.4 µM]
CCn1cc(S(=O)(=O)Nc2cc(F)ccc2C)cn1	2.6	3.7	6.8%	-0.3	·	17.7%[15.4 µM]
CCO[C@H]1OC(C(=O)N2CCN(Cc3ccc4c(c3)OCO4)CC2)=C[C@@H](c2ccc(Br)cc2)[C@@H]1CCCO	7.4	1.3	1.1%	0.2	2.3%	·
COc1ccc(CCN2C(=O)CC(Cc3ccc(C)cc3)C2=O)cc1OC (centres undefined)	-15.8	-1.3	-2.7%	0.3	·	7.6%[15.4 µM]
O=C(COC(=O)C1=COCCO1)Nc1ncc(Cl)cc1Cl	38.7	·	-14.0%	1.2	-2.8%	?
Cc1nn(C)c(C)c1NS(=O)(=O)c1ccccc1	17.4	-0.3	1.6%	-0.4	22.6%	7.7%
COC(=O)C1=C(C)N(CCCC(=O)O)C(=O)NC1c1ccccc1Cl (centres undefined)	0.7	·	4.7%	-0.7	0.6%	11.9%
COC(=O)c1cc(S(=O)(=O)NCCc2ccc(SC)cc2)c[nH]1	-1.3	-0.4	0.6%	-1.2	-1.2%	-40.9%[inhibitor]
NC(=O)c1nc[nH]c1C(=O)Nc1cccc(NC(=O)c2cccc(C(F)(F)F)c2)c1	-5.5	·	8.2%	-0.6	15.9%	-25.4%
COc1ccc(-c2cnc(C)o2)cc1S(=O)(=O)Nc1ccc(C)c(F)c1	50.6	·	·	0.0	-3.0%	·
CC(C)(C)OC(=O)Nc1ccc([C@@H](NC(=O)OC(C)(C)C)C(=O)OC(C)(C)C)cc1	17.3	·	-22.6%	0.8	0.2%	-14.6%
COc1ccccc1NC(=S)NC(C)=O	7.4	-3.8	·	0.4	·	-0.3%[15.4 µM]
O=C(CSC1=NS(=O)(=O)c2ccccc2N1)Nc1ccc(F)cc1	-3.7	·	2.3%	3.6	·	-34.3%[15.4 µM]
O=C(c1ccc2c(c1)OCCO2)N1CCN(c2ccc(C(F)(F)F)cn2)CC1	-1.6	·	·	-0.3	-21.7%	-38.9%[inhibitor]
CCOc1ccccc1CNC(=O)c1ccc(Cn2c(=O)c3cccn3c3cccnc32)cc1	9.9	·	·	0.5	4.4%	·
CC(C)=C1SC(N2CCN(c3ccc(C)c(Cl)c3)CC2)=NC1=O	15.1	5.1	3.0%	3.6	·	7.5%[15.4 µM]
C=CCOc1ccc2c3c(c(=O)oc2c1)CCCC3	-10.8	·	-2.7%	?	·	26.3%

Remaining list, next part:
SMILES	TRPML1 blocker	Menin MLL FP FL	gsp antagonist	TRPML1 agonist	ClpP mod	gsp ag
Cc1ccc(/C=C2\SC(=S)N(CCCC(=O)N3CCOCC3)C2=O)cc1	12.0	·	-24.5%	-0.2	-0.1%	-21.4%
CN1CCN(C(=O)N2CCNC2=O)CC1	-14.3	2.3	6.6%	2.1	-1.6%	-2.0%
CC1=C(C(=O)NCc2ccccc2F)C2(CCCCC2)OC1=O	-8.0	·	·	0.1	2.0%	·
O=C(COC(=O)C1CC(=O)N(Cc2ccccc2)C1)Nc1ccccc1F (centres undefined)	16.5	-2.5	-3.0%	-0.6	0.1%	-5.8%
CCCCn1c(N)c(Sc2ccccc2[N+](=O)[O-])c(=O)[nH]c1=O	-0.1	1.5	4.2%	-0.3	·	1.1%
CCN(CC)S(=O)(=O)c1cccc(-c2cn3cc(C)ccc3n2)c1	-18.8	-2.8	?	1.9	?	20.0%
COc1nc(OC)nc(N2CCC(C(=O)NC3CC3)CC2)n1	7.0	-2.6	2.2%	0.3	1.0%	-6.7%
Cc1cccc(NC(=O)Cn2nc([N+](=O)[O-])c(Br)c2C)n1	-2.3	-4.0	11.8%	-0.5	·	-12.6%[15.4 µM]
COc1ccc(S(=O)(=O)CCC(=O)NCCc2cccc(C)c2)cc1	0.0	7.5	1.5%	0.2	-0.6%	28.1%
CCOCCn1c(CCCO)nc2ccccc21	0.6	-2.0	-1.7%	-0.1	-1.8%	-18.2%
CC(=O)NS(=O)(=O)c1ccc(N)cc1	-1.3&-7.3	-1.6	2.2%&-4.2%	-0.4&-0.8	1.5%&3.0%	·
O=C(Nc1ccc(S(=O)(=O)Nc2nccs2)cc1)C1=NN(c2ccccc2)C(=O)CC1	18.8	-2.7	-5.2%	-0.1	-0.9%	-3.6%
CCn1c(-c2csc3c2CCCC3)n[nH]c1=S	-10.7	3.2	18.7%	0.0	1.0%	24.0%
NC1=NC(=O)/C(=C/c2cc(Br)c(O)c(Br)c2)S1	12.2	?	-13.7%	4.1	-1.6%	-1.1%

4 compounds picked at random from the list so far, as already listed:
SMILES	TRPML1 blocker	Menin MLL FP FL	gsp antagonist	TRPML1 agonist	ClpP mod	gsp ag
CCCCn1c(N)c(Sc2ccccc2[N+](=O)[O-])c(=O)[nH]c1=O	-0.1	1.5	4.2%	-0.3	·	1.1%
CC1=C(C(=O)NCc2ccccc2F)C2(CCCCC2)OC1=O	-8.0	·	·	0.1	2.0%	·
Cc1ccc(/C=C2\SC(=S)N(CCCC(=O)N3CCOCC3)C2=O)cc1	12.0	·	-24.5%	-0.2	-0.1%	-21.4%
O=C(N/N=C/c1ccc(-c2ccc(Cl)c(C(=O)O)c2)o1)c1cc2c(ccc3ccccc32)o1	·	31.1[activator]	-2.2%	·	3.5%	23.6%
